Screening results from PubChem.
Cruzain inh noDet = qHTS Assay for Promiscuous and Specific Inhibitors of Cruzain (without detergent) | Cruzipain (Trypanosoma cruzi), P25779 | 200,000 compounds, 2.3% hits | purified cruzain, Z-FR-AMC fluorescence, no detergent | Potency, µM, without a hit: max response, negative = inhibition, usual class: inhibitors;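 further: plate controls were enzyme without inhibitor for no effect and buffer without enzyme for full effect; nearly all actives have a fitted effect of over 40% in size; top concentration of the series not given in the record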
Target sequence (P25779 123-467 limits assumed): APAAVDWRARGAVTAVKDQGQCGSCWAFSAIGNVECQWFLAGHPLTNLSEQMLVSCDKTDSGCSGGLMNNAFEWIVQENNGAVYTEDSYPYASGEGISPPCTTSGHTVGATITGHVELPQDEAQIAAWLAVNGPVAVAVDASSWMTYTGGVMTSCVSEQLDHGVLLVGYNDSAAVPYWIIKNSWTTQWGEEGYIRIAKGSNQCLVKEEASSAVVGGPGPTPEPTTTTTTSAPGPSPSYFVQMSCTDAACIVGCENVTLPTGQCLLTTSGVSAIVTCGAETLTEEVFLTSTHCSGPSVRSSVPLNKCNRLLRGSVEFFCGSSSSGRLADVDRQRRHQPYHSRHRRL
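Purified cruzain at 1.5 nM, pre-incubated 15 min with compound at room temperature in 100 mM sodium acetate pH 5.5, 5 mM DTT, 0.00005% Triton X-100. Reaction started with 2 uM Z-FR-AMC; AMC fluorescence increase over 60 s gives rate.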
NS1 inh = qHTS Assay for Inhibitors of Influenza NS1 Protein Function; Potency, µM (series often up to 46.1 µM), inactives show at the highest dose activity, positive = more growth; 270,000 compounds, 0.4% hits; S. cerevisiae slowed by influenza A NS1, growth recovery by OD600; active means well fitted rising curve with a large enough effect; inconclusive means small, poorly fitted or top-dose-only effect; inactive means no such curve, though single readings can be large or run the other way; further: nearly all actives have a fitted effect of over 50% in size
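A cell-based growth assay was used: compounds that relieve NS1-induced slow growth of budding yeast raise OD600. Assay medium was yeast nitrogen base with ammonium sulphate and -URA supplement, pH 6.0, with 2% galactose.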
Cruzain inh Det = qHTS Assay for Promiscuous and Specific Inhibitors of Cruzain (with detergent); 200,000 compounds, 0.43% hits; Potency, µM, for the others: max response, negative = inhibition, actives largely listed as inhibitors; purified cruzain, Z-FR-AMC fluorescence, 0.01% Triton;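 further: plate controls were neutral wells for no effect and buffer without enzyme for full effect; nearly all actives have a fitted effect of over 40% in size; top concentration of the series not given in the record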
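Enzyme 1.5 nM, Z-FR-AMC 2 uM, NaOAc 100 mM pH 5.5, DTT 5 mM, Triton X-100 0.01%; 15 min RT compound preincubation; kinetic ex360/em450, 60 s delta.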
SARS PLP yeast = qHTS of Yeast-based Assay for SARS-CoV PLP | Potency, µM (doses to about 32.9 µM), inactives show at the highest dose activity, positive = growth rescue | 330,000 compounds, 0.19% hits | AID 485353, 2010 | S. cerevisiae expressing SARS-CoV PLpro, growth rescue; control for the full effect not named in the record; active means well fitted rising curve with a large enough effect; inconclusive means small, poorly fitted or top-dose-only effect; inactive means no such curve, though single readings can be large or run the other way; further: 0% is about no effect; nearly all actives have a fitted effect of over 55% in size; growth read by luminescence after 48 h
RE007 growth inh = qHTS Assay for Inhibitors of the HIV-1 protein Vpr. S. pombe RE007 Vpr strain, BacTiter-Glo ATP luminescence, 24 h; control for the full effect not named in the record. Potency, µM (titrated, usually from 92.2 µM), inactives show top-dose activity change, negative = less growth. 360,000 compounds, 0.21% hits; active = well fitted falling curve with a large enough effect; inconclusive = small, poorly fitted or top-dose-only effect; inactive = no such curve, though single readings can be large or run the other way;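 further: on the % scale 0 is the no-effect control and ±100 the full control effect; nearly all actives have a fitted effect of over 50% in size; the assay follows cell death caused by Vpr and the record does not say whether a fall means rescue or toxicity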
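Fission yeast RE007 carrying one integrated HIV-1 vpr copy, seeded at OD 0.01 in PMG+AL medium with 23 nL pinned compound. Grown 24 h at 30 degrees; viability read by BacTiter-Glo luminescence after 5 min.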
LASV entry inh = qHTS for Inhibitors of binding or entry into cells for Lassa Virus; Lassa virus pseudotype entry inhibition, cell reporter; control for the full effect not named in the record; Potency, µM (titrated, usually from 37.9 µM), without a hit: at the top dose activity change, negative = inhibition, usual class: inhibitors; 300,000 compounds, 1.2% hits; active means well fitted inhibition curve with a large enough effect; inconclusive means small, poorly fitted or top-dose-only effect, or effect the other way; inactive means flat fitted curve, though single readings scatter; tested in HEK293 cells; further: on the % scale 0 is the no-effect control and ±100 the full control effect; nearly all actives have a fitted effect of over 50% in size; luciferase read-out
Marburg entry inh = qHTS for inhibitors of binding or entry into cells for Marburg Virus | Marburg virus pseudotyped entry inhibition, cell reporter; control for the full effect not named in the record; about a third of the inactives were read at about 46 µM | AID 540276, 2011 | Potency, µM (doses to about 37.8 µM), for the others: at the highest dose activity change, negative = inhibition, most hits filed as inhibitors | 300,000 compounds, 1.8% hits; active = well fitted inhibition curve with a large enough effect; inconclusive = small, poorly fitted or top-dose-only effect, or effect the other way; inactive = flat fitted curve, though single readings scatter; tested in HEK293 cells; about a fifth of its hits are not listed in these tables; further: on the % scale 0 is the no-effect control and ±100 the full control effect; luciferase read-out
StopGo reporter = High Throughput Screening for Foot and Mouth Disease Virus Antivirals. human cells with a luciferase reporter of 2A StopGo recoding; control for the full effect not named in the record. Potency, µM (top dose mostly 57.9 µM), inactives show at the top dose signal change, negative = less light. 410,000 compounds, 1.2% hits; active = well fitted falling curve with a large enough effect; inconclusive = small, poorly fitted or top-dose-only effect; inactive = no such curve, though single readings can be large or run the other way; tested in HEK293T cells; further: on the % scale 0 is the no-effect control and ±100 the full control effect; nearly all actives have a fitted effect of over 45% in size; luciferase light after 4 h
* marks the source's active call; other numbers are inactive results; ? = inconclusive; / = no result given; & = joins results of further samples; [ ] = dose if it differs, or a comment. Unless noted, the call rests on the fitted dose curve; in most records, active means well fitted curve in the direction sought with a large enough effect; inconclusive means small, poorly fitted or top-dose-only effect, or another doubt; inactive means no such curve, though single readings can be large; an effect the other way counts as inactive or inconclusive. Potency means the concentration at half of the fitted maximal effect. Not a hit list; 4.7% or so of the library scored in one or more.

SMILES	Cruzain inh noDet	NS1 inh	Cruzain inh Det	SARS PLP yeast	RE007 growth inh	LASV entry inh	Marburg entry inh	StopGo reporter
COCCCn1c(SCC(=O)Nc2ccc3c(c2)OCCO3)nnc1-c1ccoc1C	6%	5%	3.6%	-3%	2%	?	7%&2%	-20%
NC(=O)c1ccccc1NC(=O)NC1CCCCC1	-2%	-1%	-0.1%	3%	8%	-8%	3%	4%
CSCC(O)Cn1[nH]c(=O)c2cc(Cl)c(Cl)cc2c1=O (stereo unspecified)	/	4%	/	-2%	6%	1%	1%[46.1 µM]	2%
COc1ccc(NS(=O)(=O)c2cc(NC(=O)c3ccc(Cl)cc3)ccc2N2CCOCC2)cc1	/	/	/	0%	12%	?	1.1µM*	67%[activator]
O=CN1CCCN(C(=O)CC2C(=O)NCCN2Cc2cccc(Oc3ccccc3)c2)CC1 (stereo unspecified)	/	2%	/	-3%	3%	/	/	-4%
Cc1cc(OC(=O)c2cc(F)c(F)cc2Cl)nc(C)n1	4%	-6%	3.7%	0%	5%	28%	0%	-5%
CC(=O)Nc1ccc(S(=O)(=O)c2ccc(N)cc2)cc1N	0%	9%	1.9%	0%	10%	/	/	-9%
O=c1c(O)c(-c2ccc(O)cc2O)oc2cc(O)cc(O)c12	-4%&-17%&-19%&-15%	13%&18%	-16%&-24%&-21%&-20%	19%	/	?	?	-3%
O=C(Cn1cnc2ccccc21)NCc1ccccc1	-14%	-1%	0.5%	-2%	-12%	-1%	-1%	-9%
O=C(COC(=O)/C=C/c1cccs1)NC(=O)Cc1ccccc1	/	/	/	0%	-11%	-10%[46.1 µM]	-20%[46.1 µM]	-3%
CC(NC(=O)c1cc(-c2cccnc2)nc2ccc(Br)cc12)C1CCCO1 (stereo unspecified)	/	-10%	/	-1%	-11%	1%	-15%	-9%
O=S(=O)(c1ccc(F)cc1)N1CCN=C1SCc1cccc(F)c1	/	-29%	/	1%	-1%	/	/	?
CCn1c(CN2CCOCC2)nc2cc(NC(=O)c3cc(OC)c(OC)c(OC)c3)ccc21	-5%	/	-3.5%	/	/	-1%[46.1 µM]	4%[46.1 µM]	-6%
O=C(COc1ccccc1)N1CCN=C1c1ccccc1	0%	2%	5.5%	-1%	12%	17%	?	10%
O=C(COC(=O)C1CCN(S(=O)(=O)c2cccs2)CC1)Nc1ccccc1Br	/	/	/	-1%	117%	4%[46.1 µM]	12%[46.1 µM]	13%
CCOC(=O)N/N=C\C=C\c1ccc2c(c1)OCO2	-9%	-7%	-8.5%	-12%	-29%	?	?	25%
CCOC(=O)COc1ccccc1/C=C1\NC(=O)NC1=O	/	/	/	-3%	0%	21%	-14%[46.1 µM]	-11%
Nc1ccc(Nc2ccccc2)c(Cl)c1	-15%	-73%	0.3%	-12%	117%	0%	1%&1%	28%
O=C(CSc1nnc(C2COc3ccccc3O2)o1)N1CCCc2ccccc21 (stereo unspecified)	17%	?	-3.2%	-12%	8%	-28%	-28%	-21%
Cn1c(=NC(=O)c2ccc(S(=O)(=O)N3CCCc4ccccc43)cc2)sc2cc(F)ccc21	1%	/	-0.5%	/	/	0%[46.1 µM]	/	-10%
COc1ccc(Br)cc1/C=N/n1nnnc1N	/	13%	/	-1%	0%	/	/	-16%
COc1ccccc1C1=NOC(COc2ccc3c(C)cc(=O)oc3c2)C1 (stereo unspecified)	/	2%	/	-1%	11%	?	?	-10%
Cc1cccc(NC(=O)C(=O)NCC(c2cccnc2)N2CCc3ccccc32)c1C (stereo unspecified)	-6%	/	-1.3%	/	/	-12%[46.1 µM]	/	-20%
CCOC(=O)COc1ccc(S(=O)(=O)NCc2cccnc2)cc1	-4%	7%	10%	0%	-1%	-15%	-1%	/
Cc1ccc(-c2ccc(CCC(=O)O)n2-c2ccc(C(C)C)cc2)cc1	-5%	/	-12%	/	/	-16%[46.1 µM]	5%[46.1 µM]	-11%

Continuation.
SMILES	Cruzain inh noDet	NS1 inh	Cruzain inh Det	SARS PLP yeast	RE007 growth inh	LASV entry inh	Marburg entry inh	StopGo reporter
O=C(O)Cn1c(=O)c2c3c(sc2n(Cc2ccccc2)c1=O)CCCC3	/	4%	/	4%	4%	/	/	-16%
CCOC(=O)c1c(NC(=O)/C=C/C(=O)O)sc(C)c1-c1ccc(Cl)cc1	/	-3%	/	-1%	?	/	/	?
COc1ccc(-c2cc(C(F)(F)F)c(C#N)c(SCC(=O)Nc3ccccc3F)n2)cc1	-4%	/	-1.3%	/	/	-3%[46.1 µM]	-14%[46.1 µM]	-14%
CCOC(=O)c1cc(-c2ccccc2)n(-c2cccc(C(=O)Nc3cccc(SC)c3)c2)c1C	10µM*	/	0.7%	/	/	-3%[46.1 µM]	/	10%
CC1CCN(c2ccc3nnc(CCC(=O)Nc4cccc(F)c4)n3n2)CC1	/	10%	/	6%	-7%	?	-4%[46.1 µM]	18%
COc1cccc(CCNC(=O)c2cnc3sc(N4CCOCC4)nn3c2=O)c1	11%	/	1.8%	/	/	/	0%[46.1 µM]	-19%
Cc1cc(C)n(C(=O)c2ccc([N+](=O)[O-])cc2N)n1	/	/	/	0%	7%	-11%	-6%[46.1 µM]	-4%
CC(=O)N1CCc2cc(S(=O)(=O)CCC(=O)NCCc3ccccc3)ccc21	/	3%	/	3%	-19%	/	/	-7%
c1ccc(CNc2nc3ccccc3[nH]2)cc1	-10%	2%	-7.5%	0%	1%	?	?	/
O=C(C1CCN(S(=O)(=O)c2cccc3nsnc23)CC1)N1CCn2c1nc1ccccc12	-4%	-18%	1.0%	4%	38%	-2%	-20%	?
O=C(NCCC1=CCCCC1)C(c1ccccc1)c1ccccc1	-4%	-3%	-2.5%	0%	-7%	-3%	-2%	-20%
CCC(C)(C)NC(=O)CN(C(=O)c1snc(C(N)=O)c1N)c1ccc2nc(C)sc2c1	/	2%	/	0%	1%	/	/	-1%
O=C(Nc1ccccc1N1CCOCC1)c1ccc([N+](=O)[O-])o1	/	14%	/	0%	-6%	?	?	1%
CCNC(=S)N/N=C/c1sc(N2CCCCC2)nc1-c1cccs1	?	21%	-4.3%	16%	-17%	-3%	17%	12%
COc1ccc(N(CC(=O)NC2CC3CCC2C3)S(=O)(=O)c2ccccc2)cc1Cl (stereo unspecified)	/	9%	/	?	5%	?	?	-3%
CNC(=O)C12CC3CC(C1)CC(c1ccc(C)cc1)(C3)C2	/	5%	/	0%	-7%	-1%	0%	1%
Clc1cccc(C2=NOC(c3nnc(-c4ccccc4)o3)C2)c1 (stereo unspecified)	/	-2%	/	0%	19%	/	/	-5%
Cc1ccc(/C=N/NC(=O)CNC(=O)COc2ccccc2)cc1	-7%	7%	-1.8%	12%	3%	12%	5%	0%
O=C(CSc1nc(-c2ccco2)nc2cc(=O)[nH]n12)Nc1ccccc1F	16%	/	-5.2%	/	/	-4%[46.1 µM]	/	-14%
CC1CCN(CC(=O)Nc2ccc3c(c2)OCO3)CC1	/	/	/	-4%	?	?	0%[46.1 µM]	19%
COc1ccccc1-n1cc(-c2ccccc2)c2c(=S)nc[nH]c21	/	14µM*	/	12%	1%	/	/	-2%
CCOC(=O)CSc1nc2cc(C(=O)OC)ccc2c(=O)n1CCN1CCOCC1	4%	-2%	0.2%	-1%	7%	1%	1%	8%
CSc1nc2[nH]ncc2c(=O)[nH]1	4%	8%	0.1%	22%	9%	21%	11%	-4%
CCCN1C(=O)C(O)(CC(=O)c2ccc(CC)cc2)c2ccccc21 (stereo unspecified)	-5%	/	-1.8%	/	/	21%[46.1 µM]	/	-8%
CCCCNc1nc(Cl)nc(Nc2ccc(C)cc2)n1	/	/	/	/	-1%	-3%[46.1 µM]	-30%[46.1 µM]	0%

Next section
SMILES	Cruzain inh noDet	NS1 inh	Cruzain inh Det	SARS PLP yeast	RE007 growth inh	LASV entry inh	Marburg entry inh	StopGo reporter
Oc1cccc(/C=N/N=C/c2cccc(O)c2O)c1O	/	-65%	/	-15%	-14%	11µM*	?	-87%
CC(Sc1nc(N)cc(=O)[nH]1)C(=O)Nc1sc2c(c1C#N)CCCC2 (stereo unspecified)	/	/	/	0%	-3%	?	?	?
CCOC(=O)[C@]1(C#N)[C@@H]2C=CC(C(N)=O)=CN2[C@@H](C(N)=O)[C@@H]1c1ccc(F)cc1	/	4%	/	1%	7%	/	/	-2%
Cc1ccc(NC(=S)N/N=C/c2c(C)[nH]c3ccccc23)cc1	/	6%	/	-2%	0%	-29%[46.1 µM]	?	-1%
CC(=O)Oc1ccc2c(=O)c(-c3ccccc3)c(C)oc2c1	/	-2%	/	-2%	15%	/	/	-12%
CCC1(C)Cc2ccccc2-c2nc(NCCCO)n(-c3ccccc3)c(=O)c21 (stereo unspecified)	?	9%	-3.4%	5%	-9%	-10%	-11%	0%
CCOC(=O)c1cc(N2CCCCC2)nc2ccccc12	/	/	/	/	2%	12%[46.1 µM]	9%	-9%
COCCCNC(=O)/C=C/c1ccc(OCc2c(F)cccc2Cl)cc1	/	-3%	/	-1%	-12%	?	?	-11%
COc1cc(C(=S)N2CCOCC2)ccc1OC(=O)c1ccc([N+](=O)[O-])cc1[N+](=O)[O-]	/	-5%	/	-3%	-1%	/	/	-13%
COc1ccc(C2(C(F)(F)F)NC(=O)N(C)C(=O)N2C)cc1 (stereo unspecified)	3%	-3%	3.7%	3%	-2%	8%	14%	-1%
O=S(=O)(Nc1ncnc2sccc12)c1cccc(F)c1	/	/	/	2%	7%	?	-3%	41%[activator]
COc1ccc(NC(=O)NCCCN2CCCCC2C)cc1 (stereo unspecified)	8%	-6%	-0.4%	-1%	0%	12%	0%	10%
CS(=O)(=O)N(CC(=O)NCCSCc1ccccc1)c1ccccc1Cl	/	-19%	/	-4%	37%	?	-8%[46.1 µM]	-12%
Cc1oc2c(C)c3oc(=O)c(CCC(=O)N4CCC(C(=O)NCCC(=O)O)(c5ccccc5)CC4)c(C)c3cc2c1C	/	27%	/	-2%	-2%	?	-6%[46.1 µM]	20%
CC(C)(C)OC(=O)N[C@@H](Cc1ccccc1)C(=O)NCC1CCC(C(=O)O)CC1 (stereo partly specified)	/	3%	/	2%	-4%	/	/	-21%
O=C(Nc1cc(N2CCOCC2)ncn1)c1ccccc1	-7%	-6%	-5.6%	3%	-1%	9%	18%	9%
